Screening results deposited in PubChem by National Center for Advancing Translational Sciences (NCATS).
Marburg entry inh = blocks Marburg virus binding to or entry into cells | Potency, µM (doses to about 37.8 µM), without a hit: at the top dose activity change, negative = inhibition, actives largely listed as inhibitors | 1.8% of 300,000 active | AID 540276 | Marburg virus pseudotyped entry inhibition, cell reporter; control for the full effect not named in the record; about a third of the inactives were read at about 46 µM; active = well fitted inhibition curve with a large enough effect; inconclusive = small, poorly fitted or top-dose-only effect, or effect the other way; inactive = flat fitted curve, though single readings scatter; tested in HEK293 cells; about a fifth of its hits are not listed in these tables; further: on the % scale 0 is the no-effect control and ±100 the full control effect; luciferase read-out
StopGo reporter = lowers the luciferase signal of an FMDV 2A StopGo reporter; 1.2% of 410,000 active; human cells with a luciferase reporter of 2A StopGo recoding; control for the full effect not named in the record; Potency, µM (highest dose often 57.9 µM), without a hit: top-dose signal change, negative = less light; AID 1159524; active = well fitted falling curve with a large enough effect; inconclusive = small, poorly fitted or top-dose-only effect; inactive = no such curve, though single readings can be large or run the other way; tested in HEK293T cells; further: on the % scale 0 is the no-effect control and ±100 the full control effect; nearly all actives have a fitted effect of over 45% in size; luciferase light after 4 h
Cruzain noTriton = blocks cruzain activity in detergent-free assay. P25779. purified cruzain, Z-FR-AMC fluorescence, no detergent. Potency, µM, inactives show max response, negative = inhibition, hits mostly inhibitors. 2.3% of 200,000 active. AID 1476; active means well fitted curve in the direction sought with a large enough effect; inconclusive means small, poorly fitted or top-dose-only effect, or another doubt; inactive means no such curve, though single readings can be large; an effect the other way counts as inactive or inconclusive;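 further: plate controls were enzyme without inhibitor for no effect and buffer without enzyme for full effect; nearly all actives have a fitted effect of over 40% in size; top concentration of the series not given in the record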
Target sequence (P25779 123-467 limits assumed): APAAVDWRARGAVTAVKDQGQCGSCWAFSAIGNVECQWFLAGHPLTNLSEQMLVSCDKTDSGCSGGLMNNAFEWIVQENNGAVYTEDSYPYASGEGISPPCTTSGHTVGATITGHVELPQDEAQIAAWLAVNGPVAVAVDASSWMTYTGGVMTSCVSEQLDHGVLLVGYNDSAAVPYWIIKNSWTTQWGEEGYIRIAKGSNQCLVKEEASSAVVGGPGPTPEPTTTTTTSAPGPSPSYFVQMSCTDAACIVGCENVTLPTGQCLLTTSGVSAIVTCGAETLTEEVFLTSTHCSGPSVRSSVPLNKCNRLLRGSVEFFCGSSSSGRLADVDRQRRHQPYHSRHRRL
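Purified cruzain at 1.5 nM, pre-incubated 15 min with compound at room temperature in 100 mM sodium acetate pH 5.5, 5 mM DTT, 0.00005% Triton X-100. Reaction started with 2 uM Z-FR-AMC; AMC fluorescence increase over 60 s gives rate.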
NS1 inh = blocks influenza NS1 protein function. S. cerevisiae slowed by influenza A NS1, growth recovery by OD600. 0.4% of 270,000 active. Potency, µM (top dose mostly 46.1 µM), without a hit: top-dose activity, positive = more growth; further: actives are rising curves; nearly all actives have a fitted effect of over 50% in size
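S. cerevisiae expressing influenza A NS1, grown in glucose, washed, then diluted 1:100 into pH 6.0 -URA galactose medium with 23 nl compound. Growth recovery read as OD600; NS1-free strain serves as control.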
SARS PLpro yeast = inhibitors of SARS-CoV papain-like protease in yeast; S. cerevisiae expressing SARS-CoV PLpro, growth rescue; control for the full effect not named in the record; Potency, µM (highest dose often 32.9 µM), without a hit: at the highest dose activity, positive = growth rescue; 0.19% of 330,000 active; further: 0% is about no effect; nearly all actives have a fitted effect of over 55% in size; growth read by luminescence after 48 h
Cruzain Triton = blocks cruzain activity in presence of Triton detergent; P25779; purified cruzain, Z-FR-AMC fluorescence, 0.01% Triton; Potency, µM, without a hit: max response, negative = inhibition, hits mostly inhibitors; 0.43% of 200,000 active; AID 1478; active means well fitted curve in the direction sought with a large enough effect; inconclusive means small, poorly fitted or top-dose-only effect, or another doubt; inactive means no such curve, though single readings can be large; an effect the other way counts as inactive or inconclusive;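 further: plate controls were neutral wells for no effect and buffer without enzyme for full effect; nearly all actives have a fitted effect of over 40% in size; top concentration of the series not given in the record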
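Z-FR-AMC hydrolysis (2 uM substrate) by cruzain (1.5 nM) monitored kinetically at ex 360/em 450 nm after 15 min room-temperature compound exposure; 0.01% Triton X-100, pH 5.5, 5 mM DTT.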
LASV entry inh = blocks Lassa virus binding to or entry into cells. 1.2% of 300,000 active. Potency, µM (top dose mostly 37.9 µM), for inactives: top-dose activity change, negative = inhibition, hits mostly inhibitors. Lassa virus pseudotype entry inhibition, cell reporter; control for the full effect not named in the record. AID 540256; active means well fitted inhibition curve with a large enough effect; inconclusive means small, poorly fitted or top-dose-only effect, or effect the other way; inactive means flat fitted curve, though single readings scatter; tested in HEK293 cells; further: on the % scale 0 is the no-effect control and ±100 the full control effect; nearly all actives have a fitted effect of over 50% in size; luciferase read-out
RE007 growth inh = less growth of the S. pombe RE007 Vpr strain; 0.21% of 360,000 active; Potency, µM (highest dose often 92.2 µM), without a hit: at the top dose activity change, negative = less growth; S. pombe RE007 Vpr strain, BacTiter-Glo ATP luminescence, 24 h; control for the full effect not named in the record; active = well fitted falling curve with a large enough effect; inconclusive = small, poorly fitted or top-dose-only effect; inactive = no such curve, though single readings can be large or run the other way;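 further: on the % scale 0 is the no-effect control and ±100 the full control effect; nearly all actives have a fitted effect of over 50% in size; the assay follows cell death caused by Vpr and the record does not say whether a fall means rescue or toxicity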
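Fission yeast strain RE007, carrying one chromosomally integrated HIV-1 vpr copy, was seeded at OD 0.01 in PMG+AL medium with 23 nL pinned compound. After 24 h at 30 °C and 99% humidity, viability was read by BacTiter-Glo luminescence.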
Numbers without * were called inactive; ? = inconclusive; . = no result given; & = joins results of further samples; [ ] = dose if it differs, or a comment. Unless noted, the call rests on the fitted dose curve; in most records, active means well fitted rising curve with a large enough effect; inconclusive means small, poorly fitted or top-dose-only effect; inactive means no such curve, though single readings can be large or run the other way. Potency means the concentration at half of the fitted maximal effect.

Each structure is followed by: Marburg entry inh	StopGo reporter	Cruzain noTriton	NS1 inh	SARS PLpro yeast	Cruzain Triton	LASV entry inh	RE007 growth inh
(1) Cc1ccccc1C1CC(c2cccs2)=NN1S(C)(=O)=O (configuration not stated)
 : 5%[46.1 µM]	16%	.	-1%	0%	.	11%[46.1 µM]	5%
(2) COc1ccc(/C=C(\NC(=O)c2ccc(C)cc2)C(=O)Nc2ccc(C(=O)O)cc2)cc1
 : -9%	31%[activator]	.	-10%	1%	.	3%	17%
(3) Cc1cc(C)cc(NC(=O)COc2coc(CN3CCc4ccccc4C3)cc2=O)c1
 : ?	-29%	.	.	1%	.	-6%	-2%
(4) CCCC(=O)N(c1ccc2oc(-c3ccccc3)c(C(=O)OCC)c2c1)S(=O)(=O)c1ccc(C)cc1
 : .	-9%	20%	.	.	0.3%	?	.
(5) COc1nnc(-c2ccc(N3CCOCC3)c(NC(=O)C3CCCCC3)c2)c2ccccc12
 : -13%	?	?	9%	-12%	-4.4%	-7%	22%
(6) Cc1cc(C)n(C(=O)c2ccc(S(=O)(=O)N3CCCC3)cc2)n1
 : ?	3%	-12%	-3%	-2%	4.8%	-8%	-5%
(7) COc1cccc(CNc2ncc(C(=O)Nc3cc(OC)c(OC)c(OC)c3)c(C)n2)c1
 : .	?	.	8%	1%	.	.	3%
(8) CCCn1c(SCCc2ccccc2)nc2c1c(=O)[nH]c(=O)n2C
 : -21%[46.1 µM]	0%	-14%	-9%	0%	-2.9%	-23%	3%
(9) O=C(CNCCC1=CCCCC1)Nc1ccccc1N1CCCCC1
 : -4%	-22%	4%	-32%	-2%	5.9%	24%	-7%
(10) Cc1ccc(C(=O)N2CCN(c3ccc(NC(=O)CSc4ccc(Cl)cc4)cc3)CC2)cc1
 : 15%	?	6%	-8%	-6%	-3.7%	-5%	-4%
(11) COc1ccc(C(=O)NNC(=O)C2(C)CC2(Br)Br)cc1 (configuration not stated)
 : .	13%	.	-8%	-4%	.	.	-2%
(12) COc1ccc(/C=N/NC(=S)NCCc2ccccc2)cc1
 : .	-29%	.	3%	8%	.	.	-26%
(13) Cc1onc(-c2ccccc2)c1C(=O)N/N=C(\N)COc1ccc(Cl)cc1
 : -15%	-20%	2%	7%	1%	0.1%	4%	12%
(14) CCOc1ncccc1C(=O)OCC(=O)c1ccc(Cl)s1
 : 27%[46.1 µM]	31%	-10%	4%	2%	-4.7%	?	0%
(15) N#Cc1c(/N=C/c2cc3ccccc3s2)sc2c1CCC2
 : 24%	77%[activator]	13µM*	-2%	-13%	-4.7%	-3%	7%
(16) CC(=O)NC1=NN(C(C)=O)C(c2ccccn2)S1 (configuration not stated)
 : ?	-6%	.	2%	1%	.	-9%[46.1 µM]	5%
(17) COc1ccc(Nc2nnc(-c3ccc(C)cc3)c3ccccc23)cc1C(=O)N1CCCCC1
 : ?	?	5%	-21%	18%	-11%	?	-4%
(18) CC(C)CN(CCCNC(=O)CN1C(=O)COc2ccc(S(=O)(=O)N3CCC(C)CC3)cc21)CC(C)C
 : 2%[46.1 µM]	-9%	.	-8%	-11%	.	?	-15%
(19) Fc1cccc(Cl)c1CNCCCSc1ncccn1
 : .	4%	.	4%	14%	.	.	-8%
(20) Cc1ccc(OCCN2C(=O)OC(C)(C)C2(C)O)cc1 (configuration not stated)
 : 0%	19%	2%	8%	-11%	0.3%	-3%	2%
(21) O=C(C[n+]1cc(Br)cc(Br)c1)c1ccc(Cl)cc1
 : -21%[46.1 µM]	-3%	.	5%	2%	.	22%[46.1 µM]	2%
(22) CN(C)C(=O)COC(=O)c1ccccc1Nc1ccc(SC(F)F)cc1
 : -4%	16%	?	-27%	-40%	-13%	.	-11%
(23) CCCNC(=O)c1noc2c1CCc1ccccc1-2
 : .	69%[activator]	4%	-8%	-11%	-9.1%	.	-24%
(24) CCCc1nnc(SCC(=O)Nc2nc(C)cs2)n1CCOC
 : 19%[46.1 µM]	31%[activator]	.	8%	-5%	.	-2%[46.1 µM]	3%
(25) O=C1SC(SC(=Nc2ccccc2)Nc2ccccc2)C(=O)N1c1ccccc1 (configuration not stated)
 : 5%[46.1 µM]	8%&19%	?	-20%	-3%	-4.4%	-11%[46.1 µM]	-5%&-15%
(26) Cc1ccc(C(=O)/C=C/Nc2ccc3c(c2)OCO3)cc1
 : ?	-54%	?	-67%	0%	4.9%	?	-17%
(27) O=C(CCl)NC(Cc1ccccc1)C(=O)OCC(=O)c1ccc(-c2ccccc2)cc1 (configuration not stated)
 : -9%	-21%	.	.	.	.	-3%[46.1 µM]	-7%
(28) COc1ccc2sc(SCCCS(=O)(=O)O)[n+](CCCS(=O)(=O)[O-])c2c1
 : 5%	-8%	11%	25%	12%	1.1%	4%	-9%
(29) Cc1cc(C(=O)OCC(=O)Nc2cc(S(=O)(=O)N3CCOCC3)ccc2Cl)c(C)o1
 : ?	14%	?	5%	-1%	-10%	1%	13%
(30) Cc1nc2ccccc2n1CC(O)COc1ccc(Br)cc1 (configuration not stated)
 : ?	?	.	-3%	-1%	.	.	-3%
(31) Nc1cc(=O)[nH]c(=O)n1CCc1ccccc1
 : .	-14%	.	?	11%	.	.	8%
(32) CCOc1ncccc1C(=O)Nc1cccc(-c2nnc3n2CCCCC3)c1
 : 2%[46.1 µM]	-5%	.	-6%	-2%	.	19%[46.1 µM]	5%
(33) CCCCC(=O)Nc1ccc(C(=O)Nc2cc(C(F)(F)F)ccc2Cl)cc1
 : ?	?	-9%	4%	5%	-3.2%	?	17%
(34) Cc1c(C(=O)N(Cc2ccccc2)Cc2cccnc2)cnn1-c1ccc(F)cc1
 : 3%[46.1 µM]	-6%	.	-3%	1%	.	2%	-2%
(35) C/C(=N\NC(=O)Cc1cccc2ccccc12)c1ccncc1
 : 18%	-18%	-4%	15%	-7%	0.0%	?	12%
(36) CCc1nn(C(C)C(=O)NCc2cccc(Cl)c2)c(=O)c2cc3occc3n12 (configuration not stated)
 : .	-10%	.	-3%	2%	.	.	-2%
(37) CCc1ccc(OCc2nnc(NC(=O)c3cccs3)s2)cc1
 : 19%	-10%	13µM*	-4%	-6%	1.9%	-15%	-8%
(38) O=C(O)c1ccc(F)c(S(=O)(=O)Nc2ccccc2Cl)c1
 : -3%	-3%	-3%	18%	7%	3.5%	4%	7%
(39) COc1ccc(C(=O)N(CC2CCCO2)C(C(=O)NC2CCCC2)c2ccc(Cl)cc2)cc1OC (configuration not stated)
 : 2%	-15%	?	-10%	5%	-2.3%	-14%	-1%
(40) O=C1/C(=C\c2ccc3c(c2)OCO3)N2CCC1CC2
 : 0%	20%	3%	-52%	-1%	0.0%	11%	1%
(41) Cc1ccc(C)c(Cn2nc(-c3ccccc3)ccc2=O)c1
 : ?	-11%	.	-9%	-2%	.	-13%[46.1 µM]	-9%
(42) O=C(Nc1nnc(C2CC2)s1)c1cc(S(=O)(=O)N2CCN(c3ccccc3)CC2)ccc1Cl
 : 0%	-2%	?	?	2%	2.9%	-1%	1%
(43) CCCCCC(=O)Nc1ccc2ccccc2c1
 : 4%	57%[activator]	-13%	4%	-18%	-8.4%	?	-2%
(44) c1ccc2nc(N3CCCC3)c(N3CCCCC3)nc2c1
 : 11%	-23%	.	.	.	.	-3%	-8%
(45) Cc1cc(OCC(=O)NCc2ccncc2)c2c(C)cc(=O)oc2c1
 : .	-16%	.	3%	0%	.	.	7%
(46) Cc1csc(C(C#N)C(=O)c2cc3ccccc3o2)n1 (configuration not stated)
 : ?	-7%	-23%	-63%	-12%	-4.9%	?	-12%
(47) COc1ccccc1N1C(=O)CSC1=NC(=O)c1ccccc1
 : .	-14%	.	8%	1%	.	.	-12%
(48) Cc1ccc(S(=O)(=O)N2CC[C@@H]2C(=O)O)cc1
 : 6%[46.1 µM]	5%	.	.	.	.	-6%	5%
(49) O=C(OCc1nnc(-c2ccccc2)o1)c1cc(=O)c2ccccc2o1
 : 8%	55%[activator]	-1%	-16%	6%	-3.0%	?	-8%
(50) Cc1ccc(C)c(N2CCN(C(=O)C(CC(C)C)NS(=O)(=O)c3ccc4nc(C)sc4c3)CC2)c1 (configuration not stated)
 : ?	-7%	30%	.	.	-2.3%	?	.
(51) CCCCN1C(=O)CCC(C(=O)O)C1c1ccc([N+](=O)[O-])cc1 (configuration not stated)
 : .	-2%	.	2%	-4%	.	.	22%
(52) COc1ccc(NC(=O)c2cc(N3C(=O)C4C5CCC(C5)C4C3=O)ccc2Cl)c(OC)c1 (configuration not stated)
 : -8%[46.1 µM]	4%	.	6%	-17%	.	-6%[46.1 µM]	6%
(53) Cc1ccc(C(=O)N2CCN(c3ccccc3F)CC2)cc1NC(=O)c1nsc2ccccc12
 : .	-16%	-26%	.	.	-1.8%	?	.
(54) O=C(NCCCN1CCOCC1)c1ccccc1-c1ccccc1
 : ?	8%	0%	-3%	4%	-0.7%	?	6%
(55) CC(=O)c1c(C)[nH]c(C(=O)N2CCCC(C)C2)c1C (configuration not stated)
 : .	31%[activator]	.	5%	1%	.	.	-4%
(56) CC(=O)Nc1ccc(S(=O)(=O)c2cc(O)ccc2O)cc1
 : 22%[46.1 µM]	36%[activator]	.	1%	-7%	.	7%[46.1 µM]	9%
(57) CCOc1ccccc1NC(=O)COC(=O)c1nc2nccc(C)n2n1
 : 7%[46.1 µM]	8%	.	.	13%	.	6%[46.1 µM]	1%
(58) COc1ccc(C(=O)OCCCN(C)C)cc1OC
 : 14%	-21%	-5%	-3%	0%	3.0%	13%	0%
(59) CCc1nnc2c(N3CCN(c4cccc(C(F)(F)F)c4)CC3)nc3ccccc3n12
 : .	?	10%	.	.	-1.6%	3%[46.1 µM]	.
(60) Cc1ccc(S(=O)(=O)CCC(=O)OCC(=O)c2cc(C)n(C)c2C)cc1
 : 26%	22%	.	.	1%	.	6%	9%
